# Screening data from PubChem.
# Mtb MbtI inh: inhibitors of Mycobacterium tuberculosis siderophore enzyme MbtI; purified MbtI enzyme, fluorescence intensity read-out; AID 493033; 100,000 compounds, 0.89% hits; inhibition, %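 (about 17 µg/mL by stock and volumes)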;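 active means above 50% in both replicates, above 80% if mildly self-fluorescent; inactive means the rest, strongly fluorescent compounds included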;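 further: 0% = mean of negative and 100% = mean of positive controls; one replicate is shown; some compounds called inactive have numbers as strong as hits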
# Mtb MenB inh: blocks the Mycobacterium tuberculosis MenB enzyme. MenB enzyme assay, absorbance read-out; some hits fall short of the stated cut. P9WNP5. inhibition, %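 (about 12 µg/mL by stock and volumes)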. 100,000 compounds, 0.43% hits. AID 540299;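 active means mean of two replicates above 30%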;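 further: 0% = no compound and 100% = wells with inactive enzyme; the first replicate is given; strong numbers were not always called active; inactives centre near -10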
# Target sequence (P9WNP5 whole entry, looked up): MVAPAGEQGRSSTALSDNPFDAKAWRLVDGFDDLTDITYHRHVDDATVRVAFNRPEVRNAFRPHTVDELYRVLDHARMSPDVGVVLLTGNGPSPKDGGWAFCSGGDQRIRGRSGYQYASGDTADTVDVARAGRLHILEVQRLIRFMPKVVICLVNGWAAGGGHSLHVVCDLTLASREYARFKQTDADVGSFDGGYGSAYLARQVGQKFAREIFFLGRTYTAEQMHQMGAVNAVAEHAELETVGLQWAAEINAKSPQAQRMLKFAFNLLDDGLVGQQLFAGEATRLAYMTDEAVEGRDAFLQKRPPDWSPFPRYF
# Polio RdRp inh: poliovirus RNA polymerase inhibition. poliovirus polymerase elongation, fluorescence polarization; active compounds read low. P03300. % elongation, % (compound at 16.7 µg/mL). AID 588519. 150,000 compounds, 0.66% hits; in the data active means % elongation below about 90%; further: some results filed as inactive read as strong as hits
# Target sequence (P03300 1749-2209 limits assumed): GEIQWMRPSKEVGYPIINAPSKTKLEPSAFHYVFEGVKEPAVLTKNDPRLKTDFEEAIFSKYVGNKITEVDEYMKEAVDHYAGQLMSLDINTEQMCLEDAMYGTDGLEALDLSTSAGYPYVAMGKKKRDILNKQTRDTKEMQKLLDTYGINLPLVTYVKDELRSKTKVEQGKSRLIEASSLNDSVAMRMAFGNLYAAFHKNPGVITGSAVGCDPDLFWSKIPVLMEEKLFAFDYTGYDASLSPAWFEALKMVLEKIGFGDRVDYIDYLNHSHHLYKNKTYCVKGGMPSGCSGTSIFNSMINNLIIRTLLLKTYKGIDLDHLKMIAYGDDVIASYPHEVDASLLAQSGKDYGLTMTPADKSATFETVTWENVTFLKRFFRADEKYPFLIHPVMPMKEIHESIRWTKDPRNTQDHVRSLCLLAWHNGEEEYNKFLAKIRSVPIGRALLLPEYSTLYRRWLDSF
# Polio RdRp inh intensity: recorded beside Polio RdRp inh, whose call it bears; % elongation; measured here: total intensity read-out; formula for this scale not given here;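 total fluorescence in place of polarization; lower means less elongation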
# * = called active by the depositor; i = inactive; · = not tested or not shown; & = joins results of further samples.
SMILES,Mtb MbtI inh,Mtb MenB inh,Polio RdRp inh,Polio RdRp inh intensity
COC(=O)c1ccc(Cn2ccnc2)cc1,-6,-6,103,102
CC1Cc2ccccc2N1C(=O)COC(=O)c1ccccc1N=NN(C)C (configuration not stated),-6,9,105,105
Cc1noc(C)c1S(=O)(=O)N1CCC(C(=O)NCCCN2CC(C)CC(C)C2)CC1 (configuration not stated),-4,-4,101,100
NS(=O)(=O)c1csc(C(=O)Nc2ccccc2)c1,·,-3,102,104
NS(=O)(=O)c1ccc(S(=O)(=O)NCCc2c[nH]c3ccccc23)cc1,-7,1,101,106
O=C(O)CCCC(=O)N1N=C(c2ccccc2)CC1c1ccccc1 (configuration not stated),-3,-13,106,95
Cc1cc(F)ccc1S(=O)(=O)Nc1ccc2c(c1)N(C(=O)C1CC1)CCC2,-1,-14,105,104
Cc1nn(-c2ccccc2)c2c1-c1sc(C(=O)NCc3cccs3)cc1CC2,110,-47,103,101
O=C(N1CCOCC1)N1CCC(NC(=O)C23CC4CC(CC(C4)C2)C3)CC1,5,-48,102,103
CC1S/C(=N/N=C/c2ccccc2)NC1=O (configuration not stated),-2,-15,106,97
CCc1ccc(C2=NC(C)(CC)NC(c3cc(Cl)ccc3O)C2)cc1 (configuration not stated),7,-7,102,105
Cc1cc(NC(C)c2ccccc2)n2c(nc3ccccc32)c1C#N (configuration not stated),i,-15,104,100
CCCCCCC1COC(c2ccc(O)cc2)OC1 (configuration not stated),-4,-10,98,102
c1ccc(-c2ccc(CNCc3ccco3)o2)cc1,0,-6,102,101
CCN1C(=S)SC(=O)C1=C1C=C(C)N(CCOC)C(C)=C1,3,6,144,155
Cc1cccnc1NC(=O)NC(C)(C(F)(F)F)C(F)(F)F,-7,-12,102,104
Cc1cc(Cl)ccc1OCc1nnc(SCC(=O)O)n1C1CCCCC1,4,-6,103,101
CC(C)c1ccc(C(=O)COC(=O)C(O)c2ccccc2)cc1 (configuration not stated),1,-20,101,101
O=S1(=O)N=C2CCCCCN2C(c2ccc(Br)cc2)N1 (configuration not stated),-4,4,22*,34*
O=C(NCCCc1ccccc1)c1ccc(Br)o1,-11,0,101,103

# Other results follow.
SMILES,Mtb MbtI inh,Mtb MenB inh,Polio RdRp inh,Polio RdRp inh intensity
Cc1nn(-c2ccccc2)c2nc3c(cc12)C(=O)CC(C)(C)C3,-8,·,102,104
CCOC(=O)c1c(C)oc2c1c(C=NCCC1=CCCCC1)c(O)c1ccccc12,10,18,100,101
COc1ccc(OC)c(C(=O)c2ccc(C(=O)N3CCCCC3)cc2)c1,-5,-25,99,102
O=C(CN1C(=O)CCc2ccccc21)NCCc1ccccc1,4,0,101,104
CCN1C(=O)C(Cc2nc3ccccc3c(=O)n2CC)c2ccccc21 (configuration not stated),4,-1,100,103
COCCNC(=O)Cc1ccc(C)cc1,-13,0,99,103
Cc1oc(C(=O)NC(=O)Nc2cccc(C(F)(F)F)c2)nc1-c1ccccc1,16,-10,101,103
CC(C)(C)NC(=O)C1C2CCCCC21 (configuration not stated),-18,-44,104,102
Cc1ccc(S(=O)(=O)N(CCc2ccccn2)c2ccc(C(C)C)cc2)cc1,-12,-6,107,110
COCCN(Cc1ccccc1)C(=O)c1cccc(S(=O)(=O)N2CC(C)OC(C)C2)c1 (configuration not stated),-16,-18,105,112
CCc1ccc(OCC(=O)Nc2cc(-c3nc4ccccc4o3)ccc2OC)cc1,1,-18,101,101
O=C(NCc1cc(F)cc2c1OCOC2)c1ccc(N2CCOCC2)nc1,-2,-9,103,100
CN(C)/C=C(\C(=O)Nc1ccc(F)c(F)c1F)S(=O)(=O)c1ccccc1,-15,-14,105,106
COc1cc(-c2nc(=S)[nH][nH]2)cc(OC)c1OC,98,-81,104,100
O=C(Cn1cc(/C=C2\SC(=S)NC2=O)c2ccccc21)NCc1ccco1,31,-214,95,165
CCC1(CC)Cc2ccccc2-c2nc3n(c(=O)c21)CCS3,72,-16,103,107
CCCNC(=O)c1ccc(-c2nc(CS(=O)c3ccccc3)c(C)o2)cc1 (configuration not stated),31,-8,105,102
O=C(C[n+]1cccc(/C=N/O)c1)NCc1ccccc1,1,-21,104,108
N#C/C=C/c1ccc(Br)cc1,·,-15,104,111
c1ccc(-c2[nH]ncc2CN2CCN(Cc3ccc4c(c3)OCO4)CC2)cc1,-6,-16,100,105

# The results go on:
SMILES,Mtb MbtI inh,Mtb MenB inh,Polio RdRp inh,Polio RdRp inh intensity
O=c1[nH]c2cc3c(cc2cc1CN(CCN1CCOCC1)C(=S)Nc1ccccc1)OCCO3,-85,13,101,102
COC(=O)c1ccccc1OCCOCCOc1cccc2cccnc12,-301,-12,101,105
CC(=O)Nc1ccc(SCC(=O)C(C)(C)C)cc1,21,15,102,102
c1ccc(Cn2cc(Cn3nnc(-c4ccccc4)n3)nn2)cc1,·,-37,104,108
CC(C)(C)c1cc(NC(=O)/C=C/c2cccs2)n(-c2ccccc2)n1,2,-8,104,109
O=C(NCc1cccnc1)c1noc2c1CCCC2,-5,1,104,107
COc1ccc(C(CC(=O)O)N2C(=O)c3ccccc3C2=O)cc1 (configuration not stated),4,13,98,103
CCC(=O)Nc1c(C(=O)N2CCOCC2)oc2ccccc12,17,10,101,101
CCC1CCCCN1C(=O)CCNC(=O)Cn1cnc2ccccc2c1=O (configuration not stated),5,-15,102,98
CN(C)C1(CNC(=O)C2COc3ccccc3O2)CCCCC1 (configuration not stated),2,-1,102,98
CCS(=O)(=O)N1CCC(C(=O)OCC(=O)c2cc(C)n(C(C)C)c2C)CC1,6,13,104,99
COc1cc2nc(CN(C)Cc3ccc(C)o3)[nH]c(=O)c2cc1OC,14,-14,103,107
Cc1noc(C)c1CN1C(=O)NC(CCc2ccccc2)C1=O (configuration not stated),-10,-13,102,100
c1ccc(N=P(c2ccc(N3CCOCC3)cc2N2CCOCC2)(N2CCOCC2)N2CCOCC2)cc1,6,-20,110,108
CC(C)(CO)NC(=O)NCC12CC3CC(CC(C3)C1)C2,-1,-24,102,103
Cc1ccc(Nc2nc3nonc3n3nnnc23)cc1C,0,-3,98,103
Nc1ncc(C(F)(F)F)cc1Cl,1,-25,105,106
Cc1cc(C)n2nc(SCC(=O)N3CCNC3=O)nc2n1,13,-7,93,106
CCOC(=O)C1=C(O)C(=O)N(CCCn2ccnc2)C1c1ccc(OC)cc1 (configuration not stated),-10,-4,99,100
NC(=O)CSc1nc2cc(Cl)ccc2o1,-5,·,101,105

# Full records, quoted from the list. Order of screens: Mtb MbtI inh | Mtb MenB inh | Polio RdRp inh | Polio RdRp inh intensity
# CC(=O)Nc1ccc(SCC(=O)C(C)(C)C)cc1 as listed: 21 | 15 | 102 | 102
# CC(C)(C)c1cc(NC(=O)/C=C/c2cccs2)n(-c2ccccc2)n1 as listed: 2 | -8 | 104 | 109
# COc1ccc(C(CC(=O)O)N2C(=O)c3ccccc3C2=O)cc1 (configuration not stated) as listed: 4 | 13 | 98 | 103
# CN(C)C1(CNC(=O)C2COc3ccccc3O2)CCCCC1 (configuration not stated) as listed: 2 | -1 | 102 | 98
# Cc1ccc(Nc2nc3nonc3n3nnnc23)cc1C as listed: 0 | -3 | 98 | 103

# Later entries:
SMILES,Mtb MbtI inh,Mtb MenB inh,Polio RdRp inh,Polio RdRp inh intensity
CCn1c(=O)c(=O)[nH]c2cc(C(=O)NCC3CCCCC3)ccc21,40,-22,108,122
CNC1CCCC1,2,-5,105,104
CCOc1cc2c(C#N)c(N(CC)CC)nc(N)c2c(N)n1,-121,-32,119,130
Cn1cccc1/C=C1\CCC/C(=C\c2cccn2C)C1=O,17,-182,71,196
Cc1cccc(NC(=O)NC2CC3CCCC(C2)N3CC(C)C)c1 (configuration not stated),-3,1,103,101
O=C(c1ccc2ccccc2n1)N1CCCCCC1,10,8,101,97
CSc1ccc(CCNCc2c(C(=O)O)n(C)c3cc(C)ccc23)cc1,-10,-18,103,108
O=C(c1ccccc1)n1c(=O)oc2ccccc21,11,-22,102,99
CN(C)[C@@H]1C(=O)C(C(N)=O)=C(O)[C@@]2(O)C(=O)C3=C(O)c4c(O)cccc4[C@@](C)(O)[C@H]3[C@H](O)[C@@H]12,-12&-10,-27&-3,100&99,104&102
COc1ccc(C2C(C#N)=C(/N=C/N(C)C)Oc3c2c(C)nn3-c2ccccc2)cc1 (configuration not stated),-2,-35,105,107
O=C(NCc1ccccc1)C1CCCN1c1nnc(N2CCCC2=O)s1 (configuration not stated),1,-12,106,106
Cc1c(C(=O)O)sc2[nH]c(=S)[nH]c(=O)c12,8,-11,98,103
CCOc1ccc2[nH]c(=S)c(C#N)cc2c1,133,-34,97,106
CCn1c(SCC(O)c2ccccc2)nnc1-c1ccccc1 (configuration not stated),-6,-22,101,106
O=C(CCSCc1cnn(-c2ccccc2)c1-n1cccc1)NCc1cccs1,-8,-14,101,104
COC(=O)C1C2C=CC3(CN(C(C)c4ccncc4)C(=O)C13)O2 (configuration not stated),0,18,97,105
O=C1CCSc2cccc3cccc(c23)N1,18,-24,101,99
Cc1ccc(NC(=O)CN2CCc3ccccc32)cc1C,-4,-19,98,99
CN1CCN(C2=NC(=O)/C(=C\C=C/c3ccccc3)S2)CC1,4,9,99,119
Cc1ccc(C)c(OCCC(=O)NCc2ccc3c(c2)OCO3)c1,-3,-12,103,104

# (further entries)
SMILES,Mtb MbtI inh,Mtb MenB inh,Polio RdRp inh,Polio RdRp inh intensity
Cc1ccc(-c2nn(C)c(=O)c3ccccc23)cc1CNC(=O)c1ccco1,·,-3,104,96
CCN1CCN(C(=O)c2cn(-c3ccccc3)nc2-c2ccc(OC)cc2)CC1,-4,·,101,99
CN(C)S(=O)(=O)c1ccc(NC(=O)CNCc2ccco2)cc1,-2,-31,101,103
S=c1[nH]c2ccc3ccccc3c2[nH]1,89,-21,103,100
CCP(=O)(CC)Nc1cccc(C(F)(F)F)c1,-5,-51,99,100
N#C/C(=C(/O)CCCl)c1ccccn1,-359,·,100,100
CC(C)(C)c1ccccc1OCC(=O)NCc1ccccc1,·,-7,102,108
Cc1ccc(S(=O)(=O)NCC(c2ccc(N(C)C)cc2)N(C)C)cc1 (configuration not stated),-1,0,102,101
CC(CS(=O)(=O)c1ccc2c(c1)NC(=O)C(C)S2)C(=O)NCc1ccccc1 (configuration not stated),-8,-23,103,104
CN(CCc1ccccn1)c1ncnc2[nH]ncc12,50,-4,104,111
Cc1ccc(C(CC(=O)NCc2ccco2)N2Cc3ccccc3C2=O)cc1 (configuration not stated),-8,-3,99,103
COc1cccc2sc(=NC(=O)COc3ccc(Cl)cc3Cl)n(C)c12,46,-3,100,104
COc1ccc(NC(=O)C2(C)c3ccccc3-c3ccccc32)cc1,·,-24,104,111
CN(C)C=Nc1ccc(S(=O)(=O)c2ccc(N=CN(C)C)cc2)cc1,20,-10,101,103
CC(C)(C)NS(=O)(=O)c1ccc(NC(=O)c2ccc(Br)o2)cc1,-9,-8,99,99
CCc1ccc(C2=NN(CCC(=O)NC(C)CC)C(=O)CC2)cc1 (configuration not stated),-6,-7,103,107
Cc1sc2ncnc(N)c2c1C,i,-15,67*,74*
N#C/C(=C/c1cn(-c2ccccc2)nc1-c1cc2ccccc2oc1=O)C(N)=O,-27,-27,99,100
CCOC(=O)c1sc(N)c(C#N)c1COC(=O)CNC(=O)c1ccccc1,-74,-3,46,242
COC(=O)C12CCC(C)(C(=O)O1)C2(C)C (configuration not stated),-20,-7,99,103

# (listing goes on)
SMILES,Mtb MbtI inh,Mtb MenB inh,Polio RdRp inh,Polio RdRp inh intensity
C(=C\c1ccncc1)/c1ccncc1,18,-18,99,99
CC1(C)CC2CC(C)(CN2C2=CC3=CC(=C(C#N)C#N)CCC3CC2)C1 (configuration not stated),4,-1,45,250
C=CCn1c(SCC(=O)Nc2ccc3c(c2)OCO3)nc2ccccc2c1=O,-6,-28,98,100
N#CC(C(=O)CCN1C(=O)c2ccccc2C1=O)c1nc2ccccc2[nH]1 (configuration not stated),-13,-8,105,112
NNS(=O)(=O)c1ccc(Cl)cc1,24,4,102,103
Cc1cccc(-c2n[nH]c(=S)n2C2CCCCC2)c1,-5,-36,100,101
COc1ccc(OC)c(C(=O)CC2(O)C(=O)Nc3ccccc32)c1 (configuration not stated),7,-30,103,96
C/C(=N\OCc1ccccc1C#N)c1cc2ccccc2o1,0,-3,105,113
CN(Cc1ccccc1)S(=O)(=O)c1ccc(C(=O)Nc2nnc(-c3ccco3)o2)cc1,5,-50,100,103
CC12CC3CC(C)(C1)CC(NCc1ccccn1)(C3)C2,-9,-21,104,104
Cn1ccnc1C(O)c1cccs1 (configuration not stated),·,0,106,107
CCOC(=O)c1c(C)[nH]c(NC(=O)NCc2cccnc2)c1C,-4,-47,107,99
O=S(=O)(Nc1nc2ccccc2nc1Nc1ccccc1F)c1ccc(Cl)cc1,-6,-25,101,97
O=C1Nc2ccccc2N2C1CC(=O)N(c1ccccc1)C2c1ccc(F)cc1 (configuration not stated),-6,-5,98,102
O/N=C/c1c(O)c(Br)cc2oc3c(c12)CCCC3,-10,-28,100,101
O=C(NCCN1CCOCC1)c1cccc(Cl)c1,·,-7,103,107
Cc1ccc(CN2CCSc3ccc(C(=O)Nc4ccc(F)cc4)cc32)cc1,107,-17,102,105

# The order is random; overall some 1.8% were active at least once.
